# STK33 inh = inhibitors of purified STK33 kinase, primary screen, biochemical, ADP-Glo luminescence, homogeneous, cell-free. Serine/threonine-protein kinase 33 (Homo sapiens), Q9BYT3. inhibition, % at 10 µM. actives 0.073% (n = 320,000). AID 2661, 2010. MBP phosphorylation;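 active = inhibition at or above 25%, using the most active replicate where run in duplicate; inactive = inhibition below 25%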
# Target sequence (Q9BYT3 whole entry, looked up): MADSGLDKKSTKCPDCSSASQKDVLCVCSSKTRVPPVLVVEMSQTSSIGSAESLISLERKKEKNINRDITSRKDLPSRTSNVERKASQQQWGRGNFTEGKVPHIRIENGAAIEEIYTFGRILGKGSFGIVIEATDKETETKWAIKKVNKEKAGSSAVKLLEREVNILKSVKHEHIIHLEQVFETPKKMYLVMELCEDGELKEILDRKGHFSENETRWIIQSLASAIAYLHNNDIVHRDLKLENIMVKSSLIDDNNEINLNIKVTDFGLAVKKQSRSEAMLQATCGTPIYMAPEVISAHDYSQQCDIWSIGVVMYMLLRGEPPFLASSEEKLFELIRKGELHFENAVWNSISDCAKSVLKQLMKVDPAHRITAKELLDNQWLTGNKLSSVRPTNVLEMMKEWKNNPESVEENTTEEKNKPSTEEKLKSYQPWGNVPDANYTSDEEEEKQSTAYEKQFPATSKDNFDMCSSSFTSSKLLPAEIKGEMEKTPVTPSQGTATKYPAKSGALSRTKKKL
# An asterisk follows results filed as active.
no.	Compound	STK33 inh
1	CC(=O)Nc1ccc(NS(=O)(=O)c2cc(-c3cnc(C4CC4)o3)ccc2C)cc1	1.2
2	Cc1cccc(OCc2nnc(SCC(=O)N3CCc4ccccc43)n2C)c1	-1.1
3	CC(C)Oc1cccc(C(=O)NC(=S)Nc2cccnc2)c1	-0.8
4	CN(Cc1cnn(-c2ccc(F)cc2)c1)Cc1nc(Cc2ccccc2)no1	-0.3
5	O=C(/C=C/c1ccc(Br)o1)OCc1ccccc1	-0.7
6	CN(CC(=O)N1CC=C(c2ccccc2)CC1)S(=O)(=O)c1cnc[nH]1	1.2
7	O=C1NCCCc2nc(Oc3ccccc3)sc21	-0.3
8	N#CCc1ccc(NC(=O)c2ccc(S(=O)(=O)N3CCOCC3)cc2)cc1	-1.1
9	NNc1nc(-c2ccccc2)c2cc(Br)ccc2n1	0.1
10	CC(=O)Nc1ccc(OCCOc2ccc(NC(C)=O)cc2)cc1	-0.7
11	CCc1ccc(OCC(=O)NC2CC(C)(C)NC(C)(C)C2)cc1	-0.5
12	O=C1NC(c2ccccc2)C(C(=O)c2cccs2)=C1O (configuration not stated)	-1.1
13	Cc1ccc(C(=O)Nc2onc(C)c2C#N)cc1	-1.9
14	CCOc1cc(CNCC2CCCO2)cc(Br)c1OCC(N)=O (configuration not stated)	-0.6
15	C[C@H]1CCC[C@]2(O[C@@H](CCO)C[C@@H](O)[C@@H]2O)O1	-1.8
16	Cc1ccc2c(c1)C(c1ccccc1)CC(=O)O2 (configuration not stated)	-0.3
17	OCCCc1nc2n(n1)C(c1ccccc1)C=C(c1ccccc1)N2 (configuration not stated)	1.0
18	CC(=O)Nc1ccc(NC(=O)c2nc(S(=O)(=O)Cc3cccc(C)c3)ncc2Cl)cc1	0.0
19	COc1ccc(NC2CCCN(C(=O)c3cn(C)c4ccccc34)C2)cc1 (configuration not stated)	0.6
20	COc1ccc(Oc2nc3ccccc3n(C)c2=O)cc1	-2.1
21	Cc1nc2c(=O)[nH]c3ccccc3c2o1	-2.1
22	CC(C)CN(C(=O)CCC(=O)OCC(=O)c1ccc(F)c(F)c1)c1c(N)n(CC(C)C)c(=O)[nH]c1=O	2.2
23	C1=C(c2ccccc2)N2CCN=C2S1	-0.8
24	Cc1sc2nc(SC3CCOC3=O)n(Cc3ccccc3)c(=O)c2c1C (configuration not stated)	0.1
25	O=C(Nc1ccccc1F)c1c[nH]c(=O)[nH]c1=O	-0.5
26	COc1ccc(/C(O)=C2\C(=O)C(=O)N(CCN(C)C)C2c2cc(OC)c(OC)c(OC)c2)c(C)c1 (configuration not stated)	-0.8
27	COc1ccc(OC)c(-n2c(=S)[nH]c3c(sc(=S)n3-c3ccccc3)c2=O)c1	-1.3
28	CCOC(=O)CSc1nnc(CNC(=O)c2ccc(OC)cc2)n1C1CCCCC1	-0.9
29	CCCN(CCO)CCCc1ccccc1	-0.9
30	O=C(CSc1nncn1-c1ccccc1)Nc1cccc(S(=O)(=O)N2CCCCC2)c1	-1.3
31	O=C(C1CCN(S(=O)(=O)c2cccs2)CC1)N1CCCCC1	-1.1
32	CCOC(=O)N/N=C/c1c(F)c(F)c(F)c(F)c1F	0.0
33	O=C(c1cccs1)N1CCN(c2cc(Cl)ccc2Cl)CC1	-2.7
34	Cc1cc(OC(C)C(=O)N2CCN(c3ccc(F)cc3)CC2)c2c(C)cc(=O)oc2c1 (configuration not stated)	1.2
35	O=C(O)CN1C(=O)CC(Cc2ccc(Cl)cc2)C1=O (configuration not stated)	-1.2
36	Cc1ccc(S(=O)(=O)N(C)C)cc1NC(=O)c1ccc(OC(F)(F)F)cc1	-1.2
37	COc1cccc(OC)c1C(=O)Nc1c(C(=O)N2CCN(c3ccccn3)CC2)oc2ccccc12	0.9
38	COC(=O)CSc1nnc(-c2ccoc2C)n1-c1ccc(C)cc1	-0.3
39	CCC(C)(C)NC(=O)C(c1cccc(OC)c1)N(C(=O)CNC(=O)c1cccs1)c1cccnc1 (configuration not stated)	-0.7
40	Cc1nn(Cc2ccc(Cl)cc2Cl)c(C)c1NC(=O)NC12CC3CC(CC(C3)C1)C2	0.4
41	CC(C)c1ccc(CNC(=O)C2CCCN2S(=O)(=O)c2ccccc2)cc1 (configuration not stated)	-1.6
42	COc1ccc2c(c1)CCCC21NC(=O)NC1=O (configuration not stated)	0.1
43	Nn1c(C2CCC2)nc2cc(Cl)ccc2c1=O	1.1
44	COC(=O)C1=C(CS(=O)(=O)c2ccc(Cl)cc2)NC(=O)NC1c1ccc(O)cc1 (configuration not stated)	0.7
45	COc1ccc(-n2cc(CN(C)C3CCOCC3)c(-c3cccc(F)c3)n2)cc1	-2.5
46	O=C(Cc1ccsc1)Nc1ccc(Cl)cc1Cl	-0.6
47	COc1cc2[nH]c(=O)n(CCCC(=O)N3CC=C(c4ccccc4)CC3)c(=O)c2cc1OC	-0.2
48	COc1ccc(/C=N/OCc2ccccc2C#N)c(OC)c1	0.2
49	CSc1nnc(C2CCCN(CC(=O)Nc3ccccc3N3CCOCC3)C2)n1C(C)C (configuration not stated)	-0.1
50	COC(=O)c1sc(S(=O)(=O)N2CCCCC2C(=O)O)c(C(=O)OC)c1C (configuration not stated)	-1.0
51	Cc1cccc(C)c1OCc1cc(C(=O)N2CC3C[C@@H]4CC2C[C@H](C3)C4)no1	0.5
52	O=C(NC1CCCCC1)C(c1ccco1)N(CCc1ccccc1)C(=O)C(F)(F)F (configuration not stated)	0.4
53	CCOc1ccc(CNc2nc3ccccc3n2C)cc1	5.7
54	CCCCn1c(SCC(=O)N(C)C)nnc1-c1ccncc1	-1.0
55	CCCCN1C(=O)C(=O)NC[C@@H]1C(C)O (some centres not stated)	-1.0
56	CC(=O)CSc1nnc(-c2ccc(S(=O)(=O)N3CCOCC3)cc2)n1C	0.1
57	CCc1c(C)sc(NC(=O)C2CC2c2ccccc2)c1C(N)=O (configuration not stated)	9.4
58	Cc1ccc(NC(=O)c2cccc(NC(=O)CCC(=O)O)c2)cc1C	-0.9
59	Cc1ccc(N(CC2CO2)S(=O)(=O)c2ccc(C)cc2)cc1 (configuration not stated)	-1.9
60	Cc1ccc(-n2nnnc2SCC(=O)Nc2c(C)n(C)n(-c3ccccc3)c2=O)cc1	-1.5

# (next part)
no.	Compound	STK33 inh
61	N#Cc1ccc(C(=O)OCC(=O)N2CCCC2)cc1	-1.9
62	CCCn1c(O)c(CN2CCCC(C)C2)c(C)c(C#N)c1=O (configuration not stated)	0.8
63	CSc1ccc(C(=S)N2CCCC2)cc1	-0.9
64	COCCN(Cc1ccccc1)C(=S)Nc1ccc(OC(F)F)cc1	0.0
65	Cc1cc(-c2nc(C)c(-c3nnc(SCC(=O)Nc4cc(Cl)cc(Cl)c4)n3C)s2)no1	1.4
66	COc1cccc(/C=N/NC(=O)CC(=O)NCCc2ccc(OC)c(OC)c2)c1	-0.8
67	Cc1onc(-c2ccccc2)c1C(=O)Nc1ccc(Br)cc1Cl	6.1
68	CC1(C)CC(=O)C=C(NCCN2CCN(C(=O)Nc3ccc(Cl)c(Cl)c3)CC2)C1	-0.4
69	CCCCC(=O)Nc1ccc(C(=O)OC2CCCCC2)cc1	0.3
70	O=c1c(-c2ccccc2)c(O)c2ccccc2n1-c1ccccc1	-0.2
71	O=C(Nc1ccc(O)cc1)c1ccc2c(c1)C(=O)N(Cc1ccccc1)C2=O	-0.3
72	Cn1c(-c2cccs2)nc2ccccc21	-1.0
73	CC(C)(C)C1CCC2(CC1)Nc1cccc3cccc(c13)N2	-4.2
74	Cn1cc(CCC(=O)N2CCCC(CCC(=O)NCc3ccccc3F)C2)cn1 (configuration not stated)	-2.7
75	Cc1cc(C)cc(OCC(=O)N2Cc3ccccc3CC2C(=O)O)c1 (configuration not stated)	0.1
76	CC(c1ccco1)N(C(=O)c1ccc(C(F)(F)F)cc1)c1ccccn1 (configuration not stated)	-1.2
77	O=C(Nc1sc2c(c1C(=O)O)CCCCC2)c1ccccc1	-1.1
78	COc1ccccc1-c1nnc(Nc2nc3c(OC)cccc3s2)o1	-2.1
79	COc1ccc(N2C(=O)c3ccccc3NC2c2ccc(OC)c(COc3ccccn3)c2)cc1 (configuration not stated)	-1.9
80	O=C(Nc1ccc2nn(-c3ccc(F)cc3)nc2c1)c1cccnc1	0.0
81	Cc1ccc(S(=O)(=O)N2CCOCC2)cc1C(=O)Nc1nc2ccccc2[nH]1	1.3
82	COc1cc(C=O)ccc1OC(=O)N1CCOCC1	0.5
83	Cc1[nH]c2ccccc2c1C(=O)CSc1nc2cc(S(=O)(=O)N3CCCCC3)ccc2o1	0.2
84	COc1ccc(CNC(=O)CN(C(=O)c2snc(C(N)=O)c2N)c2ccccc2F)cc1	0.6
85	O=C(/C=C\c1ccco1)Nc1nc(-c2ccccc2)cs1	0.4
86	Cc1ccc(C(=O)NNC(=O)c2csc(N3CCOCC3)n2)s1	0.0
87	O=C(O)c1ccc(C2NCC(c3ccccc3Cl)c3c2[nH]c2ccccc32)cc1 (configuration not stated)	-0.5
88	COc1ccccc1NS(=O)(=O)c1ccc(C)c(C(=O)NCC2CCCO2)c1 (configuration not stated)	-0.3
89	O=C(CNC(=O)c1nc[nH]c1C(=O)N1CCN(c2ccccc2)CC1)OCc1ccccc1	-0.2
90	CC(NC(=O)CCNS(=O)(=O)c1ccc2c(c1)c(=O)n(C)c(=O)n2C)c1ccccc1 (configuration not stated)	0.2
91	CCN(CC(=O)Nc1cc(Cl)ccc1C)C(=O)c1oc2ccc(OC)cc2c1C	-0.9
92	O=C(NCc1ccccc1)c1nnc(CS(=O)(=O)c2ccccc2)o1	0.4
93	O=C(NCc1nc2ccccc2[nH]1)C1=C[C@@H](c2ccc(Br)cc2)C[C@@H](OCCCCO)O1	1.1
94	Cc1cc(Br)cc(Br)c1OCC(=O)NNC(=O)Nc1ccccc1	-2.8
95	CCc1ccc(NC(=O)CC2C(=O)NCCN2C(=O)c2ccccc2OC)cc1 (configuration not stated)	1.3
96	COc1cc(NC(=O)C2CCCN(S(=O)(=O)c3cnc[nH]3)C2)cc(OC)c1 (configuration not stated)	-1.1
97	Cc1ccc(S(=O)(=O)N2CCCC(C(=O)N3CCN(c4ccccc4)CC3)C2)cc1 (configuration not stated)	-0.5
98	O=C(O)CCSc1nc(C(F)(F)F)cc(=O)n1-c1ccccc1	-1.8
99	COCCN(C(=S)Nc1ccccc1OC)C1CCN(C(C)=O)CC1	-1.3
100	O=C(CSc1nnc(-c2cccnc2)o1)c1cc2ccccc2oc1=O	-4.0
101	CN(C)[C@@H]1C(=O)C(C(N)=O)=C(O)[C@@]2(O)C(=O)C3=C(O)c4c(O)ccc(Cl)c4[C@@H](O)[C@H]3C[C@@H]12	0.8
102	Fc1ccc(NC(=S)NCCc2ccccc2)c(F)c1F	-0.4
103	CC(C)c1ccc(NC2CCCN(C(=O)c3cccnc3)C2)cc1 (configuration not stated)	0.1
104	CC(Sc1ccc(Cl)cc1)C(=O)N(C)CC(=O)Nc1ccc(N2CCOCC2)cc1 (configuration not stated)	0.0
105	O=C(/C=C/c1ccc2c(c1)OCO2)Nc1nc2ccc(F)cc2s1	0.6
106	CCOC(=O)C1C(c2cccnc2)NC(=O)NC1(O)C(F)(F)F (configuration not stated)	0.4
107	CSc1nnc(-c2ccc(Cl)cc2Cl)o1	-0.8
108	O=C(C1CC(=O)N(c2ccc(F)cc2)C1)N1CCCCCC1 (configuration not stated)	-0.2
109	O=C1c2cccnc2C(=O)N1CO	-0.7
110	CCc1nnc2n1N=C(c1ccc(Br)cc1)CS2	-0.8
111	CCOC(=O)C1NN=C(C(=O)c2ccc(C)cc2)C1c1ccc(C)cc1 (configuration not stated)	-1.2
112	CCOC(=O)CSc1nc2nc(C)cc(C)n2n1	3.8
113	CC(C)[C@H](NC(=O)N1c2ccccc2NC(=O)[C@@H]1C(C)C)C(=O)N[C@H](Cc1ccccc1)C(=O)O	2.2
114	Cc1cc(C(=O)N/N=C/c2ccc([N+](=O)[O-])cc2)c(C)o1	-0.6
115	O=C(Nn1cnc2ccccc2c1=O)c1ccccc1Cl	0.1
116	CCC(=O)Nc1cccc(-c2nnc(SCC(=O)NCc3ccco3)n2C)c1	-0.9
117	CC(C)(C)c1cc(NC(=O)CCl)n(-c2ccccc2)n1	-1.6
118	CCOc1ccc(S(=O)(=O)Nc2cccc(C(=O)NCC3(N4CCCCC4)CCCCC3)c2)cc1	0.2
119	COCCCNC(=O)c1ccc(CS(=O)(=O)c2ccc(OC)cc2)o1	2.3
120	COc1ccc(C(=O)NCc2nnc(SCC(=O)N3CCc4ccccc43)n2C2CCCCC2)cc1	-1.0
121	O=C(CNc1ccc2ccccc2c1)NNC1=NCCC1	0.4
122	COC(=O)C1=C(C)Nc2nc(-c3ccccc3)nn2C1c1ccc(C)o1 (configuration not stated)	-0.8

# These rows are one share of the data, and most or all hits are left out here.
